gsp agonist: agonists of gsp mutant (McCune-Albright syndrome); Potency, µM (titrated, usually from 76.9 µM), for the others: top-dose activation (cAMP increase), actives largely listed as activators; AID 624287; 340,000 tested, 0.13% active; gsp mutant cells, cAMP HTRF, 30 min; control for the full effect not named in the record; active = well fitted activation curve with a large enough effect; inconclusive = small, poorly fitted or top-dose-only effect, or another doubt; inactive = no such curve, though single readings can be large or run the other way; cell line not stated here;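 note: phosphodiesterase inhibitor Ro 20-1724 added with compounds to block cAMP breakdown; potency is the fitted concentration of half-maximal effect; nearly all actives have a fitted effect of over 60% in size; about a fifth of the inactives were tested at one dose only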
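Cells stably selected in G418 were plated at 2000/well, grown 16-24 hr, then given compounds in DMSO with the PDE inhibitor […] (300 uM solution added) for 30 min at 37C; cAMP was read by HTRF.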
TRPML1 ag: agonists of human TRPML1 channel | activation, % (no concentration beside the values) | AID 624414 | Q9GZU1 | TRPML1-expressing cells, Ca2+ dye fluorescence, FDSS; host cell line not named in the record; reference of the full effect not given here | 410,000 tested, 0.12% active; in the data active = activation above about 50%; inconclusive = about 30% to 50%; inactive = below about 30%; note: 0% is about no effect; the text of the record puts the active cut at 80%
Target sequence (Q9GZU1 whole entry, looked up): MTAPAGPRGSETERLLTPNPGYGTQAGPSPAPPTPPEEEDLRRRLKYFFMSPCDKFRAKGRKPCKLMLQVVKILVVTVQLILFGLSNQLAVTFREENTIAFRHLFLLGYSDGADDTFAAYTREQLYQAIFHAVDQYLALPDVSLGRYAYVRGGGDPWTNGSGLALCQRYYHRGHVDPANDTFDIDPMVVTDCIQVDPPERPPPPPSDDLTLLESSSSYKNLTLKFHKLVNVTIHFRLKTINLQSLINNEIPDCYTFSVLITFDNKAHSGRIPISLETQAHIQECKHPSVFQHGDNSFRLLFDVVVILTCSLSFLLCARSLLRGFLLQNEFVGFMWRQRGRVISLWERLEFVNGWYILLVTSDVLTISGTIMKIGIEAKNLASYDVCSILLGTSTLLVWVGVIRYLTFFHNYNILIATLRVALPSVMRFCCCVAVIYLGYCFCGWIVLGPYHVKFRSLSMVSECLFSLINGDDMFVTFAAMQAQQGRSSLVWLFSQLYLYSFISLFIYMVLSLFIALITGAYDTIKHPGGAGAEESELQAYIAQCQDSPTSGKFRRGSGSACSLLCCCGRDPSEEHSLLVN
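Tet-induced TRPML1-DL cells, 1,500 per well, cultured overnight, were loaded with a no-wash Ca2+ dye for 45–90 min. Calcium fluorescence was recorded on the FDSS for 110 s after compound addition, before the EC80 agonist (4 uM 54-4) was added.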
gsp antag: antagonizes gsp, the McCune-Albright syndrome mutation; gsp-mutant cells, cAMP HTRF, 30 min; control for the full effect not named in the record; Potency, µM (series often up to 76.9 µM), for the others: at the highest dose activity change, negative = inhibition, most hits filed as inhibitors; 340,000 tested, 0.4% active; AID 624288; active = falling curve of any shape with a large fitted effect; inconclusive = falling curve, mostly with a smaller effect; inactive = flat or rising curve; cell line not stated here;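 note: intracellular cAMP measured with PDE inhibitor Ro 20-1724 present during compound exposure; potency is the fitted concentration of half-maximal effect; % is set by controls: 0 for no effect and ±100 for the full control effect; nearly all actives have a fitted effect of over 65% in size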
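Cells, 2000/well, grown 16–24 h in DMEM 10% FBS with 0.5 mg/ml G418, then compounds plus […] (300 uM addition stock), 30 min at 37C. cAMP read by HTRF (cAMP-d2 and anti-cAMP antibody-K in lysis buffer) after 30 min RT.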
Menin MLL FP FL: displaces fluorescein MLL peptide from human menin. Fluorescence polarization, fluorescein-MLL peptide displacement from menin. 290,000 tested, under 10 active. FP activity change, % at 61.4 µM; inconclusive = falling polarisation curve, or a change in total fluorescence; inactive = total fluorescence flat and polarisation flat or rising; no compound was filed as active; the % refers to the polarisation; negative = inhibition;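 note: % of control where 0% means no effect; inhibitors lower the polarisation; unlabelled MLL peptide was the positive control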
TRPML1 inh: human mucolipin-1 channel inhibition; Q9GZU1; TRPML1-inducible cells, Ca2+ dye fluorescence, FDSS; hits give low values; inhibition of EC80 agonist-evoked calcium signal; activity change, negative = inhibition, % (concentration not given with the values); 390,000 tested, 0.02% active; AID 624415; in the data active means activity change below about -50%; inconclusive means about -30% to -50%; inactive means above about -30%;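 note: stimulus is agonist 54-4 at its EC80 concentration; % is set by controls: 0 for no effect and ±100 for the full control effect; compound concentration not given in the record; the text of the record puts the active cut at -80%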
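TRPML1-DL cells, Tet-induced overnight (~16 h, 37 °C) at 1,500 cells/well, were loaded with Ca8 no-wash dye plus quencher for 45-90 min at room temperature. Compounds were pinned during FDSS kinetic reading; agonist 54-4 at EC80 (4 uM final) then added.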
ClpP mod: qHTS Assay for Activators of ClpP. purified B. subtilis ClpP, FRET peptide cleavage, 20 min. 340,000 tested, 1.9% active. Potency, µM (series often up to 57.5 µM), for inactives: at the highest dose activity change, negative = active; active = well fitted falling curve with a large enough effect; inconclusive = small, poorly fitted or top-dose-only effect; inactive = no such curve, though single readings can be large or run the other way; note: potency is the fitted concentration of half-maximal effect; the source files actives as falling curves though it sought activators and does not explain the sign; nearly all actives have a fitted effect of over 65% in size; many hits overshoot -100%
Target sequence (P80244 whole entry, looked up): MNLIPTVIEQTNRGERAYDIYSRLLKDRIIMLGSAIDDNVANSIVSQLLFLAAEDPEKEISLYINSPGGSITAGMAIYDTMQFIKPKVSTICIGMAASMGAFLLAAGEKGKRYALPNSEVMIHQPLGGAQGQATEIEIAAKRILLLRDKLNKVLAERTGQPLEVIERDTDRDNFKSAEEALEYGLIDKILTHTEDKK
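ClpP 10 microg/mL final, pH 8 Tris/KCl buffer with BSA, glycerol, Tween-20; compound pinned in; FRET-FV substrate; RT 20 min; Ex320/Em430; ΔFRET vs ADEP 5.8 microM, DMSO, no enzyme.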
Active calls of the source: *; ? = inconclusive; . = no result given; & = joins results of further samples; [ ] = dose if it differs, or a comment.

| molecule | gsp agonist | TRPML1 ag | gsp antag | Menin MLL FP FL | TRPML1 inh | ClpP mod |
| --- | --- | --- | --- | --- | --- | --- |
| C[C@@H]1CC[C@]2(O[C@@H](CCO)C[C@@H](O)[C@@H]2O)O1 | . | 3.1 | 10% | -1.5 | 17 | -1.5% |
| N#Cc1ccccc1S(=O)(=O)N1CCN(CC(=O)Nc2ccccc2C(=O)NC2CC2)CC1 | 33% | -0.6 | -13% | . | -8 | -1.3% |
| COc1cc2[nH]c(=O)n(CCC(=O)NC3CCN(Cc4ccccc4)CC3)c(=O)c2cc1OC | ? | -0.8 | 9% | -0.7 | 7 | ? |
| Cc1ccc(SCC(=O)c2cc(C)c(OC(=S)N(C)C)c(C)c2)cc1 | 4% | 0.0 | -8% | -1.0 | 4 | 0.5% |
| CCCNS(=O)(=O)c1ccc(CCC(=O)N2CCOCC2)cc1 | -5% | 1.4 | 15% | -2.0 | ? | -1.3% |
| S=C(NCCCN1CCOCC1)Nc1ccc(Cl)cc1 | -4% | -0.5 | -13% | 1.6 | 4 | 1.4% |
| COc1ccc(Cn2c(C(=O)O)c(CNCCc3ccccc3Cl)c3ccc(C)cc32)cc1 | . | 4.7 | . | . | 33 | ? |
| CCOCCCNC(=S)N(Cc1ccco1)Cc1cc2cc3c(cc2[nH]c1=O)OCCO3 | -12%[15.4 µM] | 1.6 | -11% | -1.1 | 7 | . |
| COc1ccc(CN=C(C)c2c(C(F)(F)F)[nH]n(-c3nc4ccccc4s3)c2=O)cc1 | ? | 0.0 | -20% | 2.0 | -4 | -4.2% |
| N#Cc1ccc(C(=O)OCCc2cc3ccccc3c(=O)o2)cc1 | . | -0.4 | -6% | . | -4 | -0.1% |

Full records as entered above. Screens in order: gsp agonist | TRPML1 ag | gsp antag | Menin MLL FP FL | TRPML1 inh | ClpP mod
CCOCCCNC(=S)N(Cc1ccco1)Cc1cc2cc3c(cc2[nH]c1=O)OCCO3 in the list: -12%[15.4 µM] | 1.6 | -11% | -1.1 | 7 | .
CCCNS(=O)(=O)c1ccc(CCC(=O)N2CCOCC2)cc1 in the list: -5% | 1.4 | 15% | -2.0 | ? | -1.3%
S=C(NCCCN1CCOCC1)Nc1ccc(Cl)cc1 in the list: -4% | -0.5 | -13% | 1.6 | 4 | 1.4%
COc1cc2[nH]c(=O)n(CCC(=O)NC3CCN(Cc4ccccc4)CC3)c(=O)c2cc1OC in the list: ? | -0.8 | 9% | -0.7 | 7 | ?
Cc1ccc(SCC(=O)c2cc(C)c(OC(=S)N(C)C)c(C)c2)cc1 in the list: 4% | 0.0 | -8% | -1.0 | 4 | 0.5%

Two neighbouring records out of the list so far:
| molecule | gsp agonist | TRPML1 ag | gsp antag | Menin MLL FP FL | TRPML1 inh | ClpP mod |
| --- | --- | --- | --- | --- | --- | --- |
| COc1ccc(CN=C(C)c2c(C(F)(F)F)[nH]n(-c3nc4ccccc4s3)c2=O)cc1 | ? | 0.0 | -20% | 2.0 | -4 | -4.2% |
| N#Cc1ccc(C(=O)OCCc2cc3ccccc3c(=O)o2)cc1 | . | -0.4 | -6% | . | -4 | -0.1% |

Next section:
| molecule | gsp agonist | TRPML1 ag | gsp antag | Menin MLL FP FL | TRPML1 inh | ClpP mod |
| --- | --- | --- | --- | --- | --- | --- |
| C#CCOCCOCCOCCNc1nc(N2CCN(C(=O)CCCCCCCCCCNC(=O)Cn3cc(C[C@@H](C)O)nn3)CC2)nc(N2CCN(C(=O)CCCCCCCCCCNC(=O)[C@@H]([C@H](C)O)n3cc(C)nn3)CC2)n1 | . | 0.6 | -9% | . | 32 | -0.3% |
| CCOC(=O)c1ccc(CNC(=O)CSc2nnnn2-c2ccc(Cl)cc2)o1 | 9%[15.4 µM] | -0.3 | -3% | 1.0 | -11 | 0.6% |
| COc1ccc(C(=O)Nc2ccc(S(=O)(=O)Nc3cc(C)nc(C)n3)cc2)cc1 | ? | 3.1 | -29% | -0.6 | 21 | 1.9%&0.2% |
| Cc1ccc(S(=O)(=O)N2C[C@H]3C(=O)C[C@@H](c4cccc(Cl)c4)N(S(=O)(=O)c4ccc(C)cc4)[C@H]3C[C@H]2c2ccc(Cl)cc2)cc1 | 17% | 1.4 | . | . | 5 | -1.0% |
| COc1ccc(C2C(C(=O)NCCCN3CCOCC3)c3ccccc3C(=O)N2c2ccc(OC)cc2)cc1 (centres undefined) | -14% | 0.9 | 2% | 4.0 | 2 | . |
| CCOC(=O)c1ccccc1NC(=O)c1ccc(F)cc1 | -2% | 3.1 | 29% | -4.6 | 0 | -0.7% |
| CCc1cc2c(CN3CCN(CCO)CC3)cc(=O)oc2cc1O | 26% | -0.5 | 2% | 1.4 | -19 | 14µM* |
| CCCCCCn1c(N2CCC(C(N)=O)CC2)nc2c1c(=O)n(C)c(=O)n2C | ? | -0.4 | 16% | -1.2 | 1 | 0.9% |
| CCOC(=O)Cc1ccc(NC(=O)NCc2cccn2Cc2ccccc2)cc1 | . | 1.3 | . | . | -2 | 0.5% |
| O=C(CCN1C(=O)C2CCCCC2C1=O)N1CCN(S(=O)(=O)c2c(F)cccc2F)CC1 (centres undefined) | -9% | -0.8 | 10% | . | -1 | -0.9% |

(next part)
| molecule | gsp agonist | TRPML1 ag | gsp antag | Menin MLL FP FL | TRPML1 inh | ClpP mod |
| --- | --- | --- | --- | --- | --- | --- |
| COc1ccc(-n2c(=O)c3ccc(C(=O)NCc4ccc(C)cc4)cc3n(CC(=O)Nc3ccc(F)cc3)c2=O)cc1 | . | 1.1 | . | . | -13 | -3.9% |
| COc1ccc(CCNC(=O)CCCn2c(SCC(N)=O)nc3cc4c(cc3c2=O)OCO4)cc1OC | . | 1.9 | . | -5.0 | -13 | 0.3% |
| Cc1cc(C)nc(N/N=C/c2sccc2C)n1 | 1%[15.4 µM] | 0.5 | 1% | -0.4 | -18 | . |
| Cc1cccc(C)c1-n1ncc(C(=O)NCCCN2CCCCC2)c1C1CCN(C(=O)OC(C)(C)C)CC1 | . | 4.6 | . | . | -2 | 1.4% |
| COCCn1c(SCC(=O)Nc2cc(C(C)(C)C)nn2-c2ccccc2)nc2ccccc2c1=O | 28% | -0.7 | 12% | 1.4 | 0 | 1.4% |
| COc1ccc(/C=N/NC(=O)CN(CCc2ccccc2)S(=O)(=O)c2ccc(NC(C)=O)cc2)cc1OC | 7% | -0.1 | -5% | 2.5 | 9 | -2.4% |
| CCOC(=O)N1CCN(C(=O)COc2ccc(Br)cc2Cl)CC1 | -14% | -0.6 | -1% | 1.3 | 6 | 0.4% |
| CC(C)(Cc1ccc(O)cc1)NC(=O)CC(=O)N=Nc1c(O)[nH]c2ccc(Br)cc12 | -1% | 0.9 | -1% | -2.6 | -10 | . |
| O=C(NNC(=O)c1cncc(Br)c1)c1ccncc1 | 14% | -1.9 | 6% | . | -8 | 0.1% |
| Cc1cc(C(=O)NCC2COc3ccccc3O2)c2ccccc2n1 (centres undefined) | -13%[15.4 µM] | 0.7 | -5% | 5.1 | -3 | . |

The list continues:
| molecule | gsp agonist | TRPML1 ag | gsp antag | Menin MLL FP FL | TRPML1 inh | ClpP mod |
| --- | --- | --- | --- | --- | --- | --- |
| COc1cc(C(=O)N2CCNCC2)cc(OC)c1OC | 1% | 0.2 | 4% | -5.0 | -6 | 3.3% |
| O=C(NCCN1CCCCC1)c1cc2ccccc2[nH]1 | -23% | 0.3 | 0% | 1.8 | -3 | 18µM* |
| CN(CC(=O)Nc1ccc(S(=O)(=O)N2CCCC2)cc1)Cc1ccc(Cl)c(Cl)c1 | -23% | 1.0 | -4% | 4.7 | -14 | 1.1% |
| Cc1ccccc1CN1CCSc2sccc2C1=O | -18% | 0.3 | -1% | -4.5 | 3 | 0.3% |
| Cc1ccc(N2CCN(CC3CC=CCC3)CC2)cc1 (centres undefined) | -50%[inhibitor] | 0.9 | -4% | -0.7 | 2 | -2.2% |
| COc1ccc(N(CC(=O)O)S(=O)(=O)c2ccc(OC)c(OC)c2)cc1 | 0% | -0.6 | -9% | -6.1 | -7 | 0.7% |
| NC(=O)c1ccsc1NC(=O)CSc1nncs1 | 8%[15.4 µM] | 1.1 | 10% | . | 4 | 0.0% |
| COc1ccccc1OCc1ccc(C(=O)NN)cc1 | 11%[15.4 µM] | 0.1 | 5% | 2.7 | -5 | 1.9% |
| Cc1ccc(CNC(=O)c2cccc3c2C(=O)c2ccc(N4CCCCC4)cc2S3(=O)=O)cc1 | 25% | 50* | -8% | . | -7 | -3.0% |
| COc1ccc(S(=O)(=O)N2CCCOC2CNC(=O)C(=O)NCc2ccco2)cc1 (centres undefined) | 0%[15.4 µM] | 0.3 | 18% | 1.3 | 11 | . |
| COc1ccc(-n2cc3c(-c4cccc(Br)c4)nnc(C)c3n2)cc1 | 27% | 5.1 | 40µM* | 4.1 | 15 | -8.2% |
| O=C(CCC(=O)c1ccccc1)Nc1ccccc1OC(F)F | 30% | -0.2 | 15% | -9.9 | -18 | 1.3% |

Compounds were not picked by outcome; any-hit rate near 2.1%.
